# gsp agonist – qHTS for Agonist of gsp, the Etiologic Mutation Responsible for Fibrous Dysplasia/McCune-Albright Syndrome: qHTS; gsp mutant cells, cAMP HTRF, 30 min; control for the full effect not named in the record; Potency, µM (top dose mostly 76.9 µM), inactives show at the highest dose activation (cAMP increase), actives largely listed as activators; 340,000 tested, 0.13% active; AID 624287, 2012; active = well fitted activation curve with a large enough effect; inconclusive = small, poorly fitted or top-dose-only effect, or another doubt; inactive = no such curve, though single readings can be large or run the other way; cell line not stated here;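 further: phosphodiesterase inhibitor Ro 20-1724 added with compounds to block cAMP breakdown; potency means the concentration at half of the fitted maximal effect; nearly all actives have a fitted effect of over 60% in size; about a fifth of the inactives were tested at one dose only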
#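 Cells in DMEM/10% FBS with G418 were pretreated with compounds in DMSO plus […] (300 uM stock) for 30 min at 37C. cAMP was measured by HTRF (cAMP-d2 plus anti-cAMP antibody-K) after 30 min at room temperature.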
# ClpP mod – qHTS Assay for Activators of ClpP; ATP-dependent Clp protease proteolytic subunit (Bacillus subtilis (strain 168)), P80244; purified B. subtilis ClpP, FRET peptide cleavage, 20 min; Potency, µM (doses to about 57.5 µM), for the others: top-dose activity change, negative = active; 340,000 tested, 1.9% active; AID 651965, 2013; active = well fitted falling curve with a large enough effect; inconclusive = small, poorly fitted or top-dose-only effect; inactive = no such curve, though single readings can be large or run the other way; further: potency means the concentration at half of the fitted maximal effect; the source files actives as falling curves though it sought activators and does not explain the sign; nearly all actives have a fitted effect of over 65% in size; many hits overshoot -100%
# Target sequence (P80244 whole entry, looked up): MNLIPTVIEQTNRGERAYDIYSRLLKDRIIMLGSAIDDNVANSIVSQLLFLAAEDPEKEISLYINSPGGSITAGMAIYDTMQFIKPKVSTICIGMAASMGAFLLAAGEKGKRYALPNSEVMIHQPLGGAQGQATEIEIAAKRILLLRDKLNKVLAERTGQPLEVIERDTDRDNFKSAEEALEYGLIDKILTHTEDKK
#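 Buffer: 100 mM Tris/HCl pH8, 100 mM KCl, 0.05% low protease BSA, 2.5% glycerol, 0.01% Tween-20. ClpP 10 microg/mL final; 20 min RT; delta FRET normalized to ADEP and DMSO controls.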
# D2 agonist – Beta-Arrestin HTS for Positive Allosteric Modulators of the Human D2 Dopamine Receptor: Agonists | DiscoveRx PathHunter D2 beta-arrestin, luminescence, 90 min; 100% = 57 uM dopamine signal | activation, % (concentration not given with the values) | AID 624465, 2012 | 360,000 tested, 0.084% active | D(2) dopamine receptor (Homo sapiens), P14416; in the data active = activation above about 40%; inconclusive = about 15% to 40%; inactive = below about 15%; further: compound concentration not given in the record; the text of the record calls up to 30% inactive
# Target sequence (P14416 whole entry, looked up): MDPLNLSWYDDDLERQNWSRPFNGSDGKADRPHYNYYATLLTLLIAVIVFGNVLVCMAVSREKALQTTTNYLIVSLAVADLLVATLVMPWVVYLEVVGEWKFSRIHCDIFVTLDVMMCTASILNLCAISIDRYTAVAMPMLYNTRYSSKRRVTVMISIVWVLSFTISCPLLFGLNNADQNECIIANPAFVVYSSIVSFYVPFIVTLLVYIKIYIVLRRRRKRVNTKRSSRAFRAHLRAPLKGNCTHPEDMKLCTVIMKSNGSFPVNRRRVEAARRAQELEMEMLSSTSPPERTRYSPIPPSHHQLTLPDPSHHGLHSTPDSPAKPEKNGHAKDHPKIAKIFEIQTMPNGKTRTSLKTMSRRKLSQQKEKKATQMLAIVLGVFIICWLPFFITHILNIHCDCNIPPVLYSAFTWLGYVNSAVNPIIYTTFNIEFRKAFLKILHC
#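 Agonist mode: compounds alone added to overnight-plated D2 PathHunter cells for 90 min at 37 C, with 57 uM final dopamine (EC100) defining full response. Beta-arrestin recruitment detected by chemiluminescent reagent, read after 1 h at ambient temperature.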
# PINK1 expr mod – A Quantitative High throughput Screen to Identify Chemical Modulators of PINK1 Expression | AID 624263, 2012 | PINK1 immunofluorescence, high-content cytometry, 24 h | Potency, µM (highest dose often 76.6 µM), without a hit: top-dose activation (PINK1 increase), usual class: activators | 410,000 tested, 0.2% active; active = well fitted activation curve with a large enough effect; inconclusive = small, poorly fitted or top-dose-only effect; inactive = flat fitted curve, though single readings scatter; cell line not stated here;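 further: potency means the concentration at half of the fitted maximal effect; % of control where 0% means no effect; nearly all actives have a fitted effect of over 65% in size; a mitochondrial uncoupler was the plate control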
#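 PINK1 protein, normally rapidly degraded, was detected by immunofluorescence after 24 hour compound treatment of a stable cell line. Titration data (5 concentrations) came from laser-scanning cytometry, with CCCP-treated wells as controls.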
# Menin-MLL FL inh – qHTS Assay for Inhibitors Targeting the Menin-MLL Interaction in MLL Related Leukemias: Competition With Fluorescein Labeled MLL-derived Peptide. Fluorescence polarization, fluorescein-MLL peptide displacement from menin. 290,000 tested, under 10 active. FP activity change, % at 61.4 µM; inconclusive = falling polarisation curve, or a change in total fluorescence; inactive = total fluorescence flat and polarisation flat or rising; no compound was filed as active; the % refers to the polarisation; negative = inhibition;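 further: % of control where 0% means no effect; inhibitors lower the polarisation; unlabelled MLL peptide was the positive control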
# gsp antagonist – qHTS for Antagonists of gsp, the Etiologic Mutation Responsible for Fibrous Dysplasia/McCune-Albright Syndrome: qHTS | 340,000 tested, 0.4% active | gsp-mutant cells, cAMP HTRF, 30 min; control for the full effect not named in the record | Potency, µM (series often up to 76.9 µM), for the others: at the highest dose activity change, negative = inhibition, usual class: inhibitors; active = falling curve of any shape with a large fitted effect; inconclusive = falling curve, mostly with a smaller effect; inactive = flat or rising curve; cell line not stated here;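 further: intracellular cAMP measured with PDE inhibitor Ro 20-1724 present during compound exposure; potency means the concentration at half of the fitted maximal effect; on the % scale 0 is the no-effect control and ±100 the full control effect; nearly all actives have a fitted effect of over 65% in size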
#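 G418-selected cells were plated in DMEM/10% FBS for 16-24 h at 37C, then treated with compounds plus the PDE inhibitor […] (300 uM solution added) for 30 min at 37C. Intracellular cAMP was measured by HTRF after 30 min lysis at room temperature.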
# Sfp PPTase inh – qHTS Assay for Inhibitors of Bacillus subtilis Sfp phosphopantetheinyl transferase (PPTase); 4'-phosphopantetheinyl transferase ffp (Bacillus subtilis), Q9F4F7; Biochemical Sfp PPTase activity, qHTS; Potency, µM, for inactives: max response, negative = inhibition, hits mostly inhibitors; 310,000 tested, 3.5% active; AID 1490, 2009; active means well fitted inhibition curve with a large enough effect; inconclusive means small, poorly fitted or top-dose-only effect, or another doubt; inactive means no such curve, though single readings can be large or run the other way;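 further: the enzyme is Sfp with the accession as filed and its product quenches rhodamine fluorescence; potency means the concentration at half of the fitted maximal effect; 0% = enzyme reaction without inhibitor and -100% = no enzyme wells; top concentration of the series not given in the record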
#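 Reaction rates are the 30-min fluorescence difference (ex 525, em 598 nm) in wells containing 15 nM Sfp, 5 uM rhodamine-CoA and 12.5 uM BHQ-2-YbbR at pH 7.6 with 10 mM MgCl2.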
# The depositor's hits bear a star; ? = inconclusive; . = not tested or not shown; [ ] = remark or other dose.
SMILES,gsp agonist,ClpP mod,D2 agonist,PINK1 expr mod,Menin-MLL FL inh,gsp antagonist,Sfp PPTase inh
CC(=O)Nc1cc(S(=O)(=O)Nc2ccccc2)c(C)cc1C,29.2%,0.8%,-4.2,-0.6%,1.0,9.9%[15.4 µM],12.9%
CC(=O)c1c(N2CCCC2)[nH]c(-c2ccccc2)nc1=S,16.8%,1.1%,-0.8,?,-1.1,3.4%,-5.7%
CC(NC(=O)COC(=O)CNC(=O)C1CCCCC1)c1ccccc1 (stereo not drawn),15.6%,-1.2%,-1.0,-0.4%,.,-3.2%,.
CN(C(=O)C1CCC(=O)N(CCCN2CCCC2=O)C1)C(C1CC1)C1CC1 (stereo not drawn),-33.9%[inhibitor],0.8%,2.0,-0.4%,8.0,4.9%,6.9%
CCCCN(C)CCC(=O)Nc1ccc2c(c1)CCC2,?,.,-2.3,-0.3%,-3.5,3.8%,6.9%
CC(C)CC(=O)N1CCN(C(=O)c2cccc(F)c2)CC1,?,-0.9%,0.0,-1.6%,2.0,1.3%,-10.4%
CC1CCN(CCNC(=O)C2CCN(S(=O)(=O)c3cccc4nsnc34)CC2)CC1,9.9%,-3.0%,3.9,-1.3%,.,15.8%,12.4%
COc1ccc(OC)c(C2CC(=O)OC3=C2C(=O)CC(C)(C)C3)c1 (stereo not drawn),2.3%[15.4 µM],.,-3.6,0.3%,1.3,12.5%,1.9%
CCCCc1ccc(NC(=O)N[C@H](C(=O)O)C(C)CC)cc1 (stereo partly drawn),0.2%,-5.1%,-5.1,2.0%,3.1,4.5%,6.3%
Cc1cc(C(=O)NCC(c2ccco2)N(C)C)no1 (stereo not drawn),-9.4%,-0.3%,-1.4,1.7%,4.6,-1.1%,24.6%
Cc1ccc(OCc2nnn(CC(=O)NS(=O)(=O)c3c(C)noc3C)c2-c2ccccc2)cc1,.,1.5%,3.5,0.9%,.,.,.
COc1cccc(NS(=O)(=O)c2ccc(-n3cccn3)cc2)c1,-1.3%,-2.8%,1.3,-0.4%,.,-19.2%,7.4%
CCOc1nc(-c2ccccc2)ccc1-c1noc(-c2cccnc2)n1,-9.2%[15.4 µM],.,0.7,1.8%,.,5.9%,.
COc1ccc(C(=O)Nc2cc(-c3ccccc3)nn2-c2ccccc2F)cc1,.,-7.2%,-2.0,1.0%,.,?,.
Cc1cc(C)c(SSc2nnnn2-c2ccccc2)c(C)c1,?,-1.2%,-4.0,0.7%,.,.,.
NC(=O)C1CCN(C(=O)c2ccc(Cl)c(NC(=O)c3cccs3)c2)CC1,-17.0%,-1.7%,-0.8,-1.0%,.,.,.
O=C(COc1cc([N+](=O)[O-])cc2cccnc12)NCCC1=CCCCC1,?,.,-3.3,0.6%,-7.4,-10.4%,-18.5%
CON(C)S(=O)(=O)c1ccc2c(c1)NC(=O)C1CCCN21 (stereo not drawn),22.4%,-28.1%,-0.1,0.1%,3.5,1.2%,-10.3%
Cc1noc(C)c1C(=O)N1CCN(S(=O)(=O)c2ccc(F)cc2)CC1,-9.2%,-1.4%,2.2,1.3%,2.1,3.8%,10.3%
COc1ccc(CCNC(=O)C2CC(=O)N(C3CCCCCCC3)C2)cc1OC (stereo not drawn),14.8%,0.3%,-2.6,-6.7%[38.3 µM],1.5,-4.8%,9.1%
CCN(C(=O)COC(=O)c1cc2c(s1)CCC(C)C2)c1c(N)n(Cc2ccccc2)c(=O)[nH]c1=O (stereo not drawn),1.7%,2.3%,2.2,11.7%,.,6.7%,.
Cc1ccc(-c2cc(C(=O)Nc3cc(C(=O)O)ccc3C)c3ccccc3n2)cc1,?,.,-2.3,-2.0%,0.4,-12.5%,7.0%
COc1cccc(C(=O)Nc2cccc3ccccc23)c1,-6.6%[15.4 µM],0.8%,-0.5,0.5%,-0.9,1.8%,2.3%
Cc1noc(NS(=O)(=O)c2ccc(N/C=C\C(=O)c3ccc(Br)cc3)cc2)c1C,-0.2%,2.3%,-2.6,0.2%,1.9,-23.8%,70.8µM*
CCSc1nnc(NC(=O)[C@@H](NC(=O)c2ccc(C(C)(C)C)cc2)C(C)C)s1,-43.1%[inhibitor],-1.0%,-0.3,4.4%,3.1,2.0%,-7.5%
CC(OC(=O)CCN1C(=O)C2CC=CCC2C1=O)C(=O)Nc1cccc(C#N)c1 (stereo not drawn),-12.5%[15.4 µM],1.2%,-4.8,0.5%,.,-18.9%,.
C#CCOCCOCCOCCNc1nc(N2CCN(C(=O)Cn3cc(CCO)nn3)CC2)nc(N2CCN(C(=O)[C@H](Cc3ccc(O)cc3)n3cc(CCO)nn3)CC2)n1,.,-0.1%,-1.4,3.0%,.,7.2%,.
COCCCN(C(=O)CSc1nc2ccccc2c(=O)n1C)c1c(N)n(Cc2ccccc2)c(=O)[nH]c1=O,4.5%,-0.5%,1.3,1.8%,.,3.9%,.
COC(=O)c1ccc2c(=O)n(CC3CCCO3)c(SCC(=O)NCCc3ccc(S(N)(=O)=O)cc3)nc2c1 (stereo not drawn),0.1%,.,0.7,-0.9%,-1.1,-5.2%,16.1%
O=C(NCCC(NS(=O)(=O)OCC(Cl)(Cl)Cl)c1ccccc1)C(F)(F)F (stereo not drawn),.,2.6%,1.1,2.6%,-4.5,8.5%,16.7%
C=CCNC(=O)C1CCN(c2ccc(S(=O)(=O)N3CCOCC3)cc2Cl)CC1,12.5%[15.4 µM],-2.2%,-3.3,7.1%,-0.3,0.3%,6.7%
COC(=O)c1ccccc1NC(=S)NC(=O)COc1ccccc1Cl,-69.5%[inhibitor],-7.8%,-2.3,4.2%,2.6,-14.2%,15.9%
CCOC(=O)C1CCN(c2cc3c(cc2NC(=O)c2ccccc2F)n(C)c(=O)n3C)CC1,-57.7%[inhibitor],-7.4%,2.0,2.0%,.,-5.1%,-7.3%
Cc1cc(C)cc(N(CC(=O)NCc2ccco2)S(=O)(=O)c2ccccc2)c1,-8.2%[15.4 µM],.,-1.4,0.1%,1.2,-14.1%,4.4%
O=C(COc1coc(CN2CCN(c3cccc(Cl)c3)CC2)cc1=O)NC1CCCC1,?,-1.5%,-0.9,-5.2%,.,2.2%,.
COc1ccc(OC)c(/C=N/NC(=O)c2ccc(=O)[nH]n2)c1,19.8%,-2.2%,-2.2,2.3%,-1.5,0.7%,0.5%
CCCCCCC(=O)Nc1ccc(Cl)cn1,5.4%,-3.0%,-1.5,-1.6%[38.3 µM],2.5,12.2%,11.8%
C[C@H](CO)N1C[C@H](C)[C@@H](CN(C)Cc2ccncc2)Oc2c(NC(=O)CCC(F)(F)F)cccc2C1=O,.,-1.7%,-0.6,0.1%,.,-6.3%,.
Cc1ccnc(NC(=O)C2CC(=O)N(c3ccc4c(c3)OCCO4)C2)c1 (stereo not drawn),?,-2.5%,-5.2,0.5%,.,-1.1%,6.6%
COc1ccc(NC(=S)NC2CC3CCCC(C2)N3C2CC2)cc1 (stereo not drawn),5.3%,-0.5%,0.4,-2.0%,-1.4,5.2%,7.4%
Nc1ccccc1SCc1cc([N+](=O)[O-])cc2c1OCOC2,11.5%,-0.9%,-3.2,-2.5%,0.8,3.1%,-29.9%
CCN(CC)CCn1c(NCc2cccc(OC)c2OC)nc2ccccc21,8.6%,-1.5%,-0.7,-1.7%,1.0,4.4%,9.6%
CC(=O)/C(N=Nc1ccc2c(c1)OCCO2)=C(\C)O,-2.2%,0.1%,-0.2,-2.0%,0.5,10.1%,1.1%
CCCSc1nc(C)c(-c2csc(C(C#N)=C3CCCC3)n2)cc1C#N,18.5%,-20.8%,-1.4,.,20.0,-4.9%,70.8µM*
Cc1ccc(NC(=O)CCC(=O)NNC(=O)NC23CC4CC(CC(C4)C2)C3)cc1C,-12.5%,.,-3.4,0.8%,-2.3,0.2%,11.4%
CCc1ccc(N2CC(C(=O)Nc3cccc(C(=O)NC4CC4)c3)CC2=O)cc1 (stereo not drawn),?,-1.7%,1.4,24.9%,.,12.5%,.
Cc1ccccc1COc1ccc(-c2nn[nH]n2)cc1,-63.4%[inhibitor],.,-2.8,-0.8%,-0.7,-14.7%,18.0%
Cc1ccc2c(c1)N(CC(=O)NCC1CCCO1)C(=O)C(C)O2 (stereo not drawn),-33.7%,0.1%,-0.8,-0.8%,2.1,1.2%,15.7%
C/C(=N/N1CCN(Cc2cccc3ccccc23)CC1)c1ccco1,-10.8%[15.4 µM],.,-3.7,0.2%,-0.2,-5.2%,-5.7%
Cc1c(Cl)cccc1-n1nnnc1-c1cccs1,-2.0%,1.1%,-1.1,-0.4%,-0.4,-12.3%,3.8%
COc1ccccc1N1CCN(C(=O)c2oc3cc(C)c(C)cc3c2C)CC1,-12.8%,1.7%,-0.3,10.6%,2.4,-5.4%,?
COc1ccc(-c2csc(C(C)(O)c3cccc(F)c3)n2)cc1 (stereo not drawn),.,0.0%,1.3,8.2%,.,.,.
COC(=O)C(CCSC)NC(=O)Cn1ncc2c(=O)oc3ccccc3c21 (stereo not drawn),-34.8%[inhibitor],-1.4%,-1.5,7.5%,-3.4,-0.6%,-19.7%
CCCCCCCc1c(O)nc(SCC(=O)O)[nH]c1=O,-38.5%[inhibitor],-0.6%,1.1,0.6%,5.5,9.0%,-2.9%
CC(=O)c1ccc(NC(=O)c2cc(Cl)sc2Cl)cc1,-21.8%,1.2%,-0.6,-1.8%,1.4,-22.4%,17.1%
CCS(=O)(=O)Nc1ccc(C2=NN(S(=O)(=O)c3ccc(F)cc3)C(c3ccco3)C2)cc1 (stereo not drawn),3.9%,-3.7%,-1.0,25.3%[38.3 µM],?,-12.4%,?
